Screening data: PubChem BioAssay, National Center for Advancing Translational Sciences (NCATS)
TRPV1 PAM = HTS Assay for Compounds that Act as Potentiators of the Vanilloid Receptor 1. Transient receptor potential cation channel subfamily V member 1 (Homo sapiens), Q8NER1. TRPV1-expressing cells, Fluo-8 calcium influx, capsaicin EC20 potentiation; host cell line not named in the record; control for the full effect not named in the record. potentiation, % at 8.33 µM. actives 0.02% (n = 320,000); active means potentiation above 80%; inconclusive means 30% to 80%; inactive means below 30%; note: 0% is about no effect
Target sequence (Q8NER1 whole entry, looked up): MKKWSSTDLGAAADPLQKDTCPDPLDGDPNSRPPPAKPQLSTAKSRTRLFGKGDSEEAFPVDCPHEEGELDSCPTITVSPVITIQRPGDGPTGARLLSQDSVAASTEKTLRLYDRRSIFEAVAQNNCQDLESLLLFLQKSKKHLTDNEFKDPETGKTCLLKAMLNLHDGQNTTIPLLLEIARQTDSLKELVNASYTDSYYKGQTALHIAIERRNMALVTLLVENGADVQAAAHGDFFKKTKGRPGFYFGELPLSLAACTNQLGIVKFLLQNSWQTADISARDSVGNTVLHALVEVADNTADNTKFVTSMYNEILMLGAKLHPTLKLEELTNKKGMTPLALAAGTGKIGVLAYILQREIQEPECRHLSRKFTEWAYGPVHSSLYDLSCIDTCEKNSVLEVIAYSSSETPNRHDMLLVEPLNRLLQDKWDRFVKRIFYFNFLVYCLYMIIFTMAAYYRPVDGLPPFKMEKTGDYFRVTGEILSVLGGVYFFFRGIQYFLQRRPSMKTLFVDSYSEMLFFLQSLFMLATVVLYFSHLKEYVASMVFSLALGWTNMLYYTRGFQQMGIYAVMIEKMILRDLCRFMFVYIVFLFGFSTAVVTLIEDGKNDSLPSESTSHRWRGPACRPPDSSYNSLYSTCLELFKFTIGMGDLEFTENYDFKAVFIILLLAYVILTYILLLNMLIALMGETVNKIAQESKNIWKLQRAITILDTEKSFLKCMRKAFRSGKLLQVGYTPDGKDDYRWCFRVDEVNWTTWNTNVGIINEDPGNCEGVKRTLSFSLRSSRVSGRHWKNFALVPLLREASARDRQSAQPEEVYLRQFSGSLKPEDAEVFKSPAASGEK
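Fluo-8 calcium influx in TRPV1-expressing cells, kinetic read (ex 480/em 520 nm). Compound added and read 3 min for agonist activity, followed by capsaicin at EC20 final and 2 min further read for enhancement.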
ClpP mod = qHTS Assay for Activators of ClpP; actives 1.9% (n = 340,000); Potency, µM (titrated, usually from 57.5 µM), for the others: at the highest dose activity change, negative = active; purified B. subtilis ClpP, FRET peptide cleavage, 20 min; ATP-dependent Clp protease proteolytic subunit (Bacillus subtilis (strain 168)), P80244; active = well fitted falling curve with a large enough effect; inconclusive = small, poorly fitted or top-dose-only effect; inactive = no such curve, though single readings can be large or run the other way; note: potency is the fitted concentration of half-maximal effect; the source files actives as falling curves though it sought activators and does not explain the sign; nearly all actives have a fitted effect of over 65% in size; many hits overshoot -100%
Target sequence (P80244 whole entry, looked up): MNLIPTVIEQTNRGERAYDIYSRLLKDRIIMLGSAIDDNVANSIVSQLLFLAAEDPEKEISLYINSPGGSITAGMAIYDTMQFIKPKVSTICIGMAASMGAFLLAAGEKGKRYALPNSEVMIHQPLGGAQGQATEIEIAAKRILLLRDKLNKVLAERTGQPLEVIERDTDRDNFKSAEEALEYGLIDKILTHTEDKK
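Purified B. subtilis ClpP, 10 microg/mL final in Tris/HCl pH8 with KCl, BSA, glycerol and Tween-20, cleaved an Abz/nitrotyrosine-quenched decapeptide. Fluorescence (ex 320, em 430) was read at 0 and 20 min at room temperature. Delta was normalized to 5.8 microM ADEP and DMSO/no-enzyme controls.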
Sfp inh = qHTS Assay for Inhibitors of Bacillus subtilis Sfp phosphopantetheinyl transferase (PPTase); 4'-phosphopantetheinyl transferase ffp (Bacillus subtilis), Q9F4F7; Biochemical Sfp PPTase activity, qHTS; Potency, µM, for the others: max response, negative = inhibition, hits mostly inhibitors; actives 3.5% (n = 310,000); active = well fitted inhibition curve with a large enough effect; inconclusive = small, poorly fitted or top-dose-only effect, or another doubt; inactive = no such curve, though single readings can be large or run the other way;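 note: the enzyme is Sfp with the accession as filed and its product quenches rhodamine fluorescence; potency is the fitted concentration of half-maximal effect; 0% = enzyme reaction without inhibitor and -100% = no enzyme wells; top concentration of the series not given in the record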
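Buffer: 50 mM Hepes-Na pH 7.6, 10 mM MgCl2, 0.01% Nonidet P-40, 0.01% BSA. Enzyme 15 nM, pre-exposed to compound 15 min; substrates then added and fluorescence change tracked over 30 min.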
gsp agonist = qHTS for Agonist of gsp, the Etiologic Mutation Responsible for Fibrous Dysplasia/McCune-Albright Syndrome: qHTS; gsp mutant cells, cAMP HTRF, 30 min; control for the full effect not named in the record; actives 0.13% (n = 340,000); Potency, µM (top dose mostly 76.9 µM), inactives show at the top dose activation (cAMP increase), most hits filed as activators; active = well fitted activation curve with a large enough effect; inconclusive = small, poorly fitted or top-dose-only effect, or another doubt; inactive = no such curve, though single readings can be large or run the other way; cell line not stated here;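 note: phosphodiesterase inhibitor Ro 20-1724 added with compounds to block cAMP breakdown; potency is the fitted concentration of half-maximal effect; nearly all actives have a fitted effect of over 60% in size; about a fifth of the inactives were tested at one dose only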
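Cells in DMEM/10% FBS with G418 were pretreated with compounds in DMSO plus […] (300 uM stock) for 30 min at 37C. cAMP was measured by HTRF (cAMP-d2 plus anti-cAMP antibody-K) after 30 min at room temperature.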
TRPML1 blocker = qHTS for Inhibitors of the Human Mucolipin Transient Receptor Potential 1 (TRPML1); TRPML1-inducible cells, Ca2+ dye fluorescence, FDSS; active compounds read low; inhibition of EC80 agonist-evoked calcium signal; activity change, negative = inhibition, % (no concentration beside the values); actives 0.02% (n = 390,000); AID 624415, 2012; in the data active means activity change below about -50%; inconclusive means about -30% to -50%; inactive means above about -30%;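 note: stimulus is agonist 54-4 at its EC80 concentration; % is set by controls: 0 for no effect and ±100 for the full control effect; compound concentration not given in the record; the text of the record puts the active cut at -80%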
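Calcium fluorescence in TRPML1-DL cells induced overnight with Tet: a 110 s read after compound pin addition, then a 110 s antagonist read after challenge with 54-4 at 4 uM final (EC80).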
Menin MLL FP FL = qHTS Assay for Inhibitors Targeting the Menin-MLL Interaction in MLL Related Leukemias: Competition With Fluorescein Labeled MLL-derived Peptide; FP activity change, % at 61.4 µM; Fluorescence polarization, fluorescein-MLL peptide displacement from menin; 290,000 tested, under 10 active; AID 1766, 2009; inconclusive = falling polarisation curve, or a change in total fluorescence; inactive = total fluorescence flat and polarisation flat or rising; no compound was filed as active; the % refers to the polarisation; negative = inhibition;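 note: % of control where 0% means no effect; inhibitors lower the polarisation; unlabelled MLL peptide was the positive control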
gsp antag = qHTS for Antagonists of gsp, the Etiologic Mutation Responsible for Fibrous Dysplasia/McCune-Albright Syndrome: qHTS | gsp-mutant cells, cAMP HTRF, 30 min; control for the full effect not named in the record | actives 0.4% (n = 340,000) | Potency, µM (titrated, usually from 76.9 µM), without a hit: top-dose activity change, negative = inhibition, usual class: inhibitors; active = falling curve of any shape with a large fitted effect; inconclusive = falling curve, mostly with a smaller effect; inactive = flat or rising curve; cell line not stated here;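 note: intracellular cAMP measured with PDE inhibitor Ro 20-1724 present during compound exposure; potency is the fitted concentration of half-maximal effect; % is set by controls: 0 for no effect and ±100 for the full control effect; nearly all actives have a fitted effect of over 65% in size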
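Measurement of cellular cAMP by homogeneous time-resolved fluorescence following a 30 min compound exposure at 37C. The PDE inhibitor […] was present throughout; the assay buffer was DPBS with 0.05% BSA and 0.005% Tween 20.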
* hit, by the source's call; ? = inconclusive; / = not tested or not shown; & = joins results of further samples; [ ] = remark or other dose.

SMILES | TRPV1 PAM | ClpP mod | Sfp inh | gsp agonist | TRPML1 blocker | Menin MLL FP FL | gsp antag
COc1ccccc1Nc1nc(N)nc(CSC(=S)N2CCC(C)CC2)n1 | 24 | -0.9% | 22% | -26% | 24 | -2.2 | -4%
Cc1ccc(-c2nc(-c3ccccc3)no2)c(Cl)c1 | / | -8.9%&-0.4% | ? | 13% | 12 | -0.1 | -4%
Cc1cccc(NCc2nc(SCC(=O)Nc3ccccc3Br)n[nH]2)c1 | 3 | 3.1% | 6% | 0% | -18 | -2.0 | -9%
O=C1C=C(c2ccoc2)N2CCC[C@H]2C1 | / | -6.9% | / | 16% | -7 | / | 8%
CCN(CC)CCN1C(=O)C2C(C(=O)Nc3ccc(C(C)C)cc3)C3C=CC2(O3)C1C(=O)NC1CCCCC1 (centres undefined) | -4 | / | 12% | 1%[15.4 µM] | -2 | 2.9 | 6%
N#CC1=C(N)Oc2c(oc(CO)cc2=O)C1c1cccs1 (centres undefined) | 8 | -1.1% | 1% | 17% | -7 | -2.6 | 1%
COc1ccccc1NC(=O)c1ccc2nsnc2c1 | 3 | / | 22% | 18%[15.4 µM] | -8 | -0.3 | 8%
CC1Sc2ccc(S(=O)(=O)CCC(=O)Nc3ccc(C(C)C)cc3)cc2NC1=O (centres undefined) | 0 | -1.0% | 13% | 10% | -14 | -0.9 | -5%
O=C(c1ccc(F)cc1)N1CCN(c2ccc([N+](=O)[O-])cc2-n2cccc2)CC1 | 5 | -3.0% | 8% | 1%[15.4 µM] | 76 | 8.3 | ?
COc1cc(OC)c(C(=O)OCC(=O)c2ccc3c(c2)NC(=O)CO3)cc1OC | / | -0.8% | / | 4% | -9 | / | -6%
O=C(COc1nc2ccccc2nc1N1CCOCC1)N1CCc2ccccc21 | 13 | -4.2% | -12% | -10%[15.4 µM] | -6 | ? | 4%
Cc1ccc(S/C=C\C(=O)c2ccccc2)cc1 | 5 | -2.2% | -3% | 21% | -13 | -1.8 | 7%
O=C(NCCc1cccc(Cl)c1)c1cc2ccccc2oc1=O | -10 | -1.4% | 14% | 7%[15.4 µM] | 15 | 0.7 | 20%
CCOC(=O)CNC(=O)c1cn(CC)c(=O)c2cc(OC)c(OC)cc12 | 5 | ? | -4% | -36% | -4 | -0.4 | 17%
CC(=O)N1CCN(S(=O)(=O)c2c(F)cc(F)c(Cl)c2F)CC1 | -4 | -3.1% | 6% | 6%[15.4 µM] | -7 | -5.6 | 1%
Cc1cc(C)n2nc(SC(C)C(=O)Nc3ccccc3F)nc2n1 (centres undefined) | / | -1.5% | / | 17%[15.4 µM] | 3 | / | 1%
Cc1ccc2c(c1)CC1(CN2C)C(=O)OC(C)(C)OC1=O | -12 | 0.5%&-7.3% | 1% | 42% | 0 | 0.2 | -6%
COc1ccc(OCC(=O)NNC(=O)C(=O)N2CCCC2)cc1 | 12 | 2.2% | -9% | -3% | -19 | 2.0 | 13%
COCCn1c(SCC(=O)Nc2cc(C)on2)nnc1-c1ccco1 | -6 | 3.4% | 4% | ? | 2 | 2.5 | 12%
Cc1cccc2cc(CN(Cc3ccco3)C(=O)c3cccs3)c(=O)[nH]c12 | / | -24% | -10% | 20% | 6 | 8.6 | -10%
COc1ccc(S(=O)(=O)N2CCCC(C(=O)N3CCCC3)C2)cc1OC (centres undefined) | -19 | -2.1% | / | -2%[15.4 µM] | 4 | / | 2%
COc1cccc(-c2nc(-c3ccccc3)c(-c3ccccc3)[nH]2)c1OCC(=O)O | 5 | 3.7% | -22% | -28% | / | 0.7 | ?
CC(C)C1OC2c3cccc4cccc(c34)C2N1c1ccccc1 (centres undefined) | 2 | 5.1% | -7% | 4% | 2 | ? | 0%
c1csc(C2Nc3ccccc3-c3nc4ccccc4n32)c1 (centres undefined) | -4 | 11% | -7% | 36% | 2 | / | -13%
NC(=O)c1ccc(C(F)(F)F)n(Cc2ccc(Cl)cc2)c1=O | 11 | -4.4% | 10% | -2% | 44 | 0.9 | 4%
CN(C)c1ccc(/C=C(/C#N)C(=O)NCc2ccccc2)o1 | -11 | 0.8% | 3% | 10% | 3 | ? | -15%
O=C(COC(=O)c1ccccc1F)NNC(=O)c1ccccc1 | 5 | -1.4% | / | 57%[15.4 µM] | 18 | / | 12%
COC(=O)Cn1cnc2ccccc2c1=O | 15 | -8.0% | 6% | -5% | -2 | 7.1 | 5%
Cc1ccc(N2CC(C(=O)NCc3ccccn3)CC2=O)cc1 (centres undefined) | 2 | -0.3% | -2% | -14% | 5 | 0.3 | 4%
CCOc1ccccc1NC(=O)c1ccc2nccnc2c1 | 6 | 0.5% | 5% | -54%[inhibitor] | -9 | 3.8 | -10%
O=c1[nH]c2cccc(Cl)c2n(CCNc2ncc(C(F)(F)F)cc2Cl)c1=O | 21 | -6.3% | -2% | -24% | 4 | 2.0 | -14%
N#Cc1ncn(-c2ccc(Oc3ccccc3)cc2)c1N | -18 | / | 4% | 17% | 10 | 1.5 | -5%
COc1ccc(-c2nc(C(N)=O)c3[nH]c(=O)n(-c4ccccc4OC)c3n2)c(OC)c1 | -2 | -22% | 17% | 20% | -6 | 14 | 8%
Cc1ccc2c(c1)N(CCC(=O)NC(C)C)C(=O)CO2 | -11 | 28µM* | 12% | -54%[inhibitor] | 22 | 0.3 | 8%
CN(C)S(=O)(=O)c1ccccc1N=C=S | 4 | -3.1% | 0% | 5% | -1 | 1.8 | -6%
COc1ccc(N(CC(=O)Nc2cccc(N(C)S(C)(=O)=O)c2)S(=O)(=O)c2ccccc2)cc1Cl | 4 | -0.3% | 10% | -20% | -9 | 1.3 | -24%
Cc1nc2ccccc2n1CCOc1ccc([N+](=O)[O-])cc1 | -1 | / | -3% | 2% | -4 | 0.0 | 7%
O=C(CCN1C(=O)c2ccc([N+](=O)[O-])cc2C1=O)Nc1cccc(O)c1 | 14 | 1.5% | 16% | 1% | 7 | -1.1 | 17%
COc1ccc(NC2CS(=O)(=O)CC2NCc2ccco2)cc1 (centres undefined) | -6 | -3.0% | 1% | -2% | -13 | 0.7 | 11%
Cc1cccc(N2CCN(C(=S)Nc3ccc4nc(N5CCN(C)CC5)cc(C)c4c3)CC2C)c1 (centres undefined) | 0 | 4.6% | 7% | 10% | -7 | -4.9 | 7%
COC(=O)CN(n1cnnc1)S(=O)(=O)c1ccccc1Cl | 3 | 1.7% | 2% | ? | 24 | 1.2 | 8%
Oc1c(Br)cc2oc3c(c2c1CNCc1ccccc1)CCCC3 | -7 | -0.7% | -14% | ? | -7 | 3.1 | 7%
O=C(Nc1ccccc1)C1CC(=O)N(c2ccc3c4c(cccc24)CC3)C1 (centres undefined) | 8 | -1.8% | -3% | -89%[inhibitor] | 16 | 2.0 | 4%
O=C(NCCc1ccco1)c1ccc(OCc2cn3ccccc3n2)cc1 | / | / | / | -26% | -5 | / | -2%
N#CCc1c(C#N)c(N)nc(N2CCCC(CO)C2)c1C#N (centres undefined) | 1 | -4.6% | 15% | 1%[15.4 µM] | -12 | 11 | 14%

In the list so far, two have bromine.
SMILES | TRPV1 PAM | ClpP mod | Sfp inh | gsp agonist | TRPML1 blocker | Menin MLL FP FL | gsp antag
Cc1cccc(NCc2nc(SCC(=O)Nc3ccccc3Br)n[nH]2)c1 | 3 | 3.1% | 6% | 0% | -18 | -2.0 | -9%
Oc1c(Br)cc2oc3c(c2c1CNCc1ccccc1)CCCC3 | -7 | -0.7% | -14% | ? | -7 | 3.1 | 7%

(next part)
SMILES | TRPV1 PAM | ClpP mod | Sfp inh | gsp agonist | TRPML1 blocker | Menin MLL FP FL | gsp antag
O=C(OCc1cn([C@@H]2C[C@H](c3ccccc3)N(C(=O)c3cccs3)C[C@H]2O)nn1)c1ccccc1 | / | 0.5% | / | -4% | 2 | / | /
CN=C(Nc1ccc(Cl)cc1)c1ccc(C(F)(F)F)cc1 | -13 | -1.0% | 17% | -6% | -3 | 1.8 | 3%
CCC1CCCCN1CCCNC(=O)CS(=O)(=O)Cc1nc(-c2cccc(OC)c2)oc1C (centres undefined) | 4 | ? | 6% | 2% | -9 | -1.6 | 3%
CC(C)C(NC(=O)c1ccco1)C(=O)OCc1cc([N+](=O)[O-])cc2c1OCOC2 (centres undefined) | 19 | -0.4% | 5% | 11%[15.4 µM] | 37 | -1.4 | -21%
COc1ccc2[nH]c(C(=O)Nc3ccc4c(c3)OCO4)cc2c1 | -14 | 10% | ? | -25% | -4 | 0.7 | -26%
Cc1ccc(-c2onc3ccc(C(=O)/C=C/N(C)C)cc23)cc1 | 0 | -0.1% | -6% | 5% | -7 | 0.0 | ?
COc1ccc(NS(=O)(=O)c2ccc(C(=O)N3CCN(c4ccc(F)cc4)CC3)cc2)cc1 | / | 0.9% | / | 19% | 14 | / | ?
O=C(C1COc2ccccc2O1)N1CCN(c2nc3c(F)cc(F)cc3s2)CC1 (centres undefined) | -14 | 2.1% | / | 12%[15.4 µM] | -3 | / | ?
COc1cc(NC(=O)C2CCN(S(=O)(=O)c3ccc4[nH]c(=O)oc4c3)CC2)cc(OC)c1 | 26 | 0.6% | 13% | ? | 13 | / | -3%
Cc1cccc(-c2nc(CSCC(=O)N3CCN(Cc4ccc5c(c4)OCO5)CC3)c(C)o2)c1 | -8 | -1.0% | -7% | -4% | -8 | -1.8 | -15%
CCOC(=O)c1c(C)[nH]c(C=Nc2ccc(OC)cc2)c1O | 11 | -4.6% | 10% | -4% | 19 | 1.0 | ?
